Source: PubChem BioAssay
RanGTP-Impb inh: inhibitors of RanGTP-importin-beta interaction, primary screen, biochemical, FRET, CFP-Ran, YFP-importin-beta, homogeneous. Ran GTPase (GTP-bound) - importin-beta complex. cell-free CFP-Ran/YFP-importin-beta FRET ratio. inhibition, % (concentration not given with the values). 300,000 compounds, 1.1% hits;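 active = most replicates above 15%; inconclusive = exactly half above 15%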;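 also: 0% = DMSO wells and 100% = Ran loaded with GDP instead of GTP; wells of about 40 µL received 100 nL stock; the first replicate is given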
MLL AF4-AF9 inh: inhibitors of AF4 peptide binding to AF9, primary screen, biochemical, AlphaScreen, biotin-AF4 peptide, FLAG-AF9, single point | inhibition, % at 10 µM | Protein AF-9 (Homo sapiens), P42568 | 350,000 compounds, 0.47% hits;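 active = every replicate reaching a set inhibition limit, whatever the replicate mean, cut at about 25% in these data; inconclusive = mean inhibition reaches that limit but some replicates miss it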;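 also: 0% = plate neutral control median and 100% = total signal loss; the record names both 10 and 1 µM as test concentration; the first replicate is given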
Target sequence (P42568 whole entry, looked up): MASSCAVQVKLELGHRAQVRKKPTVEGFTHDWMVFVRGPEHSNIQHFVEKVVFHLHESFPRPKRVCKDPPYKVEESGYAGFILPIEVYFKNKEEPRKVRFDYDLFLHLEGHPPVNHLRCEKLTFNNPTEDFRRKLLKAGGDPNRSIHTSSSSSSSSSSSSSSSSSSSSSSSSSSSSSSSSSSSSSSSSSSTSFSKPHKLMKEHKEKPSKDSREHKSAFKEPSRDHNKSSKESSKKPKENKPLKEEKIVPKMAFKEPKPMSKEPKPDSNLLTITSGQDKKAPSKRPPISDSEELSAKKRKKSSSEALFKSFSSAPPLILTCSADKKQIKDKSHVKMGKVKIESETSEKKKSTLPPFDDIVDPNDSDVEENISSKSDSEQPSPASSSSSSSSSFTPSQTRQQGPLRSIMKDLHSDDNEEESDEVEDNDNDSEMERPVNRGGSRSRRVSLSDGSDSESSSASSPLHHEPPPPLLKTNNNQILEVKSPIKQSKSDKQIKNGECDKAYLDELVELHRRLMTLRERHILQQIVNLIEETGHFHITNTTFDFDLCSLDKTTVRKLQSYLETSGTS
Beta apoptosis: inhibitors of cytokine-induced beta cell apoptosis, primary screen, luminescence. INS-1E cytokine-induced death, ATP luminescence, 48 h; percent of positive-control rescue, neutral wells zero. protection from apoptosis, % (concentration not given with the values). 300,000 compounds, 0.8% hits;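 active = all replicates at 75% or more, or half of them and the mean; inconclusive = half reach 75% but not the mean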;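 also: 0% = cytokine-treated negative control wells and 100% = positive control rescue; higher means more ATP so stronger rescue from cytokine killing; wells of about 40 µL received 100 nL stock; the first replicate is given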
rRNA inh HTS: reduced GFP signal of wild-type E. coli, primary screen, bacterial rRNA inhibitor project, GFP/RFP fluorescence, OD600, single point. E. coli WT GFP vs humanized-ribosome RFP mutants, 24 h; hits give low values; DMSO median 0, no signal -100. GFP signal change (wild-type ribosome), % (no concentration beside the values). 350,000 compounds, 1.6% hits. AID 720706, 2013;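 active = significant combined selectivity score with lowered wild-type GFP, culture density cut under 30%, mutant RFP and density less affected; inactive = any of these conditions unmet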; also: one replicate is shown; some compounds called inactive have numbers as strong as hits
ALR H2O2 inh: inhibitors of human ALR sulfhydryl oxidase, primary screen, biochemical, H2O2 detection, HRP-luminol luminescence, single point; FAD-linked sulfhydryl oxidase ALR (Homo sapiens), P55789; purified ALR, DTT oxidation; inhibition, % (concentration not given with the values); 290,000 compounds, 3.8% hits;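 active = mean and each replicate at 75% or more; inconclusive = only one of the two met; inactive = neither met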;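 also: stock transfer was 7.5 nL into about 7.5 µL; 0% = neutral wells and 100% = wells with inactivated enzyme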
Target sequence (P55789 whole entry, looked up): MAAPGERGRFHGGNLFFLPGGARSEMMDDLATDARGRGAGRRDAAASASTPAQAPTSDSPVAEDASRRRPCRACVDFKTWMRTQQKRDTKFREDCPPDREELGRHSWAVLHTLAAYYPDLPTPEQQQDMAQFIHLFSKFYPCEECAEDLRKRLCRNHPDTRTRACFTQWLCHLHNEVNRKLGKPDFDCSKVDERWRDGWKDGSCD
T cruzi inh: inhibitors of intracellular T. cruzi growth, primary screen, luminescence, NIH3T3 host cells; T. cruzi beta-gal in NIH3T3, 90 h; inhibition, % (no concentration beside the values); 300,000 compounds, 1.4% hits;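 active = mean inhibition across valid replicates above about 55%, limit read from the data; inconclusive = mean below that limit but half or more replicates reach it; inactive = mean below it, under half of replicates reach it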;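 also: signal also drops with host cell toxicity which is not excluded here; 0% = plate median of DMSO wells and 100% = zero luminescence signal; higher percent means less beta-gal luminescence so fewer parasites; stock transfer was 50 nL into about 50 µL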
FGF22 binding: binders of human FGF22 protein, primary screen, FGF22 synaptogenesis inhibitor project, biophysical, thermal shift, single point; 340,000 compounds, 1.5% hits; recombinant FGF22 thermal shift, SYPRO orange fluorescence; percent of sucrose octasulfate shift, DMSO zero; calls only at 9.99 µM; Fibroblast growth factor 22 (Homo sapiens), Q9HCT0;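 active = melting point raised past a set limit in the mean and every replicate; inconclusive = no clear call; three in four hits are not shown here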
Target sequence (Q9HCT0 whole entry, looked up): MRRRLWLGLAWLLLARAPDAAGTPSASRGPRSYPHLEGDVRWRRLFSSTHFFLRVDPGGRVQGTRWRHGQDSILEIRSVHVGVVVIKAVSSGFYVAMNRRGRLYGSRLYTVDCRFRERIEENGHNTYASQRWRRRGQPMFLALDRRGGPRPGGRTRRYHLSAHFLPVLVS
Calb FLC: C. albicans growth inhibition with fluconazole, primary screen, CaCi-2 strain, Alamar Blue fluorescence. C. albicans CaCi-2 (fluconazole-resistant clinical isolate) + fluconazole, 48 h. growth inhibition, % (test concentration not listed). 300,000 compounds, 0.57% hits;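 active = most replicates above 75%; inconclusive = exactly half above 75%; inactive = most below 75%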;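 also: all wells also contain fluconazole at 8 µg/ml as a sub-toxic cotreatment; 0% = median of DMSO wells and 100% = median of geldanamycin control wells; wells of about 8 µL received 7.5 nL stock; the first replicate is given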
rRNA inh HTS OD600: recorded beside rRNA inh HTS, whose call it bears; OD600 change, %; measured here: OD600 growth;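 optical density of the mix in the first replicate; 0 = DMSO median and -100 = no signal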
rRNA inh HTS RFP: recorded beside rRNA inh HTS, whose call it bears; RFP signal change, %; measured here: RFP humanized mutant strains;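 first replicate; 0 = DMSO median and -100 = no signal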
The depositor's hits bear a star; i = inactive; ? = inconclusive; nt = no result given.

SMILES	RanGTP-Impb inh	MLL AF4-AF9 inh	Beta apoptosis	rRNA inh HTS	rRNA inh HTS OD600	rRNA inh HTS RFP	ALR H2O2 inh	T cruzi inh	FGF22 binding	Calb FLC
COc1ccc2sc(N(CCCN(C)C)C(=O)c3ccc(S(=O)(=O)N4CCc5ccccc5C4)cc3)nc2c1	6.7	14.3	nt	-0.4	0.4	-1.7	-4.6	57.2*	i	-11.3
COc1ccc(C(=O)N(CC(=O)NC(C)(C)C)c2ccc3c(c2)OCCO3)cc1OC	1.8	nt	-6.4	nt	nt	nt	-15.4	-7.9	nt	-8.6
Cc1sc2ncnc(N3CCC(C(=O)Nc4sc5c(c4C(N)=O)CCC(C)C5)CC3)c2c1C (stereo not drawn)	nt	-0.5	8.1	2.2	6.8	8.1	-3.8	nt	i	nt
O=C(Nc1cccc(Cl)c1Cl)C1CCCC1	6.8	1.2	nt	12.4	-7.4	0.8	-16.9	-5.1	i	-2.0
COc1ccc(C2(CNC(=O)CCC(=O)O)CCCC2)cc1	7.3	nt	-5.6	nt	nt	nt	-0.4	-6.1	nt	-1.6
COc1ccc(C2=NN3C(C2)c2ccccc2OC32C(=O)N(C)c3ccccc32)cc1 (stereo not drawn)	-4.3	nt	-1.9	nt	nt	nt	-2.7	22.5	nt	-9.1
Cc1ccc(C)c(NC(=O)N2CCc3ccccc3C2)c1	-4.0	-0.8	-1.9	nt	nt	nt	-1.0	-1.1	i	0.5
CC(=O)c1sc(N/N=C2\CC3CC2C(C)C3(C)C)nc1C (stereo not drawn)	-1.2	13.4	0.0	-30.6*	-15.5*	-4.2*	21.9	41.7	i	?
CCOc1nc2cnccc2n(CC(=O)Nc2ccccc2F)c1=O	-0.9	0.1	-1.7	-3.3	5.2	-1.7	5.3	-18.1	i	-6.5
Cc1ccc(OCC(=O)NCCNC(=O)c2ccncc2)cc1C	3.8	1.0	-2.6	2.8	3.1	-3.5	-1.0	8.1	i	14.0
COc1cc(NC(=O)COC(=O)CNC(=O)C23CC4CC(CC(C4)C2)C3)cc(OC)c1	nt	1.9	-3.3	-15.5	-31.8	1.6	-0.1	nt	i	nt
O=C(N=Nc1c(O)[nH]c2ccccc12)c1cccs1	5.2	nt	10.3	nt	nt	nt	-13.4	-5.6	nt	-1.8
COc1ccc(N(CC(=O)Nc2cccc(C)c2C)S(=O)(=O)c2c(C)[nH]c(=O)[nH]c2=O)cc1	3.0	-9.2	-5.4	0.0	0.9	-0.6	0.6	-0.8	i	12.3
CN1CCN(C(=O)c2ccc(C(F)(F)F)cc2)CC1	4.0	-0.5	-0.5	18.8	17.0	-2.3	-8.3	-18.5	nt	-0.5
O=C(COC(=O)C1CCC1)Nc1cccc(Cl)c1	3.4	-1.0	-1.7	10.3	3.1	-0.8	-6.5	-2.0	nt	5.7
Cc1cccnc1NC(N)=S	-3.8	-3.1	-2.7	16.5	-4.4	2.6	40.3	-26.2	i	-1.7
N#CC1(c2nc3ccccc3[nH]2)CC1c1ccc2c(c1)OCO2 (stereo not drawn)	-0.2	nt	-4.7	nt	nt	nt	-2.9	-2.4	nt	-7.5
Oc1c(/C=N/c2ncn[nH]2)ccc2ccccc12	6.0	nt	-8.1	nt	nt	nt	nt	-35.3	nt	2.3
O=C1CCCN1c1ccc(Br)cc1	0.2	nt	-4.7	nt	nt	nt	-13.9	-11.3	nt	9.3
CNC(=O)CSc1nnc(-c2ccncc2)n1Cc1ccccc1	3.7	nt	-3.5	nt	nt	nt	-6.9	-3.0	nt	?
O=C(/C=C/NCc1cccnc1)C(F)(F)C(F)(F)F	-0.3	1.1	0.3	3.0	2.8	-0.8	6.4	-8.7	i	-19.5
Cc1ccc(NC(=O)CN2C(=O)CNC2=O)cc1	0.5	-4.1	-5.3	6.0	15.3	2.3	-11.8	-2.8	i	15.8
Cc1cc2c(cc(C(=O)N3CCC(C(=O)N4CCCC4)CC3)n2Cc2c(F)cccc2Cl)o1	4.7	-2.4	0.5	-5.2	-4.8	-6.8	56.3	15.8	i	7.4
O=[N+]([O-])c1ccc(/C=N/n2c(-c3ccccc3)n[nH]c2=S)cc1	-0.9	3.0	-0.5	2.4	1.8	-0.7	-3.7	-3.4	i	2.1

Compounds from the list above with a thiophene ring, fused or not, in the order listed:
SMILES	RanGTP-Impb inh	MLL AF4-AF9 inh	Beta apoptosis	rRNA inh HTS	rRNA inh HTS OD600	rRNA inh HTS RFP	ALR H2O2 inh	T cruzi inh	FGF22 binding	Calb FLC
Cc1sc2ncnc(N3CCC(C(=O)Nc4sc5c(c4C(N)=O)CCC(C)C5)CC3)c2c1C (stereo not drawn)	nt	-0.5	8.1	2.2	6.8	8.1	-3.8	nt	i	nt
O=C(N=Nc1c(O)[nH]c2ccccc12)c1cccs1	5.2	nt	10.3	nt	nt	nt	-13.4	-5.6	nt	-1.8

(next part)
SMILES	RanGTP-Impb inh	MLL AF4-AF9 inh	Beta apoptosis	rRNA inh HTS	rRNA inh HTS OD600	rRNA inh HTS RFP	ALR H2O2 inh	T cruzi inh	FGF22 binding	Calb FLC
COc1cc(C)c(C(=O)CSc2nnc(CNC(=O)c3ccco3)n2C)cc1C	1.2	-2.1	-4.7	9.6	16.7	-1.4	1.2	-11.4	i	1.3
CCOC(=O)CN1CCc2c(C)nc3c(-c4ccc(OC)c(OC)c4)cnn3c21	3.9	nt	nt	nt	nt	nt	83.5*	0.0	nt	?
COc1ccc(C(CNC(=O)CN2C(=O)NC3(CCCC3)C2=O)N(C)C)cc1 (stereo not drawn)	1.2	-0.5	-2.9	8.3	11.0	-0.2	-4.1	0.7	i	-12.5
CCn1c(SCC(=O)N2CCOCC2)nnc1C(C)NC(=O)c1ccccc1 (stereo not drawn)	1.7	0.4	-1.8	6.3	10.9	0.3	-3.4	5.3	i	-8.4
Cc1ccc(S(=O)(=O)NCC(=O)N(CC(=O)NC2CCCCC2)CC2CCCO2)cc1 (stereo not drawn)	5.6	nt	-1.6	nt	nt	nt	-1.8	14.7	nt	12.3
Cc1ccccc1-c1nc(CS(=O)(=O)CC(=O)N2CCc3ccccc32)c(C)o1	0.1	2.5	1.3	2.7	6.2	-1.1	-7.7	9.7	i	-10.2
COc1ccccc1NC(=O)CN1CCN(c2ccccc2F)CC1	2.0	nt	1.1	nt	nt	nt	-2.9	10.4	nt	-1.5
Cc1nc(SCC(=O)NCC2CCCO2)c2cc(-c3ccccc3)sc2n1 (stereo not drawn)	nt	-0.5	1.8	nt	nt	nt	47.0	nt	i	nt
CN(C)c1ccc(C(=S)N2CCN(C(=S)Nc3ccccc3)CC2)cc1	-1.6	6.2	-1.8	-7.3	-8.5	0.2	56.5	-22.5	i	-40.2
CCOc1ccccc1C(=O)Nc1nnc(SCC(=O)N2CCOCC2)s1	-2.8	-3.3	-2.4	-12.6	-10.7	-3.0	nt	-8.3	i	10.4
CCCC(=O)Nc1nc2c(OC)ccc(OC)c2s1	3.0	5.6	-2.8	-8.9	-14.8	-0.7	-1.5	-0.3	i	-0.6
CCOC(=O)N1CCC(Nc2cccc(SC)c2)CC1	3.2	nt	nt	nt	nt	nt	97.5*	20.4	nt	10.7
CCN(CC(=O)Nc1ccc2c(c1)OCCO2)C(=O)C1CCCCC1	-5.2	nt	-3.4	nt	nt	nt	-22.2	2.3	nt	-0.5
O=C(c1cnn2c1NC(c1ccco1)CC2C(F)(F)F)N1CCN(c2cccc(Cl)c2)CC1 (stereo not drawn)	-1.1	nt	12.8	nt	nt	nt	3.1	15.0	nt	10.1
CC(C)(C)c1ccc(C(=O)N2CCC3(CC2)NCCc2[nH]cnc23)cc1	6.9	2.8	-0.7	10.3	-1.8	4.5	-2.9	-0.2	i	-2.3
Cc1ccc(-c2cc(C(=O)OCn3nnc4ccccc4c3=O)c3ccccc3n2)cc1	0.9	nt	-6.0	nt	nt	nt	-5.7	-5.5	nt	-0.3
O=C(CN1CCN(c2ccc(O)cc2)CC1)NC(c1ccccc1)c1ccccc1	nt	12.9	5.4	3.7	11.1	-0.2	?	11.6	i	114.2*
CCOC(=O)c1c(NC(NC(C)=O)C(Cl)(Cl)Cl)sc(C(C)=O)c1C (stereo not drawn)	3.0	nt	4.3	nt	nt	nt	0.9	18.4	nt	-13.7
Cc1ccnc(NC(=S)NC(=O)/C=C/c2ccccc2)c1	-3.7	-25.9	-3.3	10.7	6.6	0.3	-0.5	-3.5	i	12.0
Cc1ccccc1/C=N\NC(=O)c1ccccc1-n1cccc1	-1.5	1.5	1.8	-0.9	-10.8	-1.0	-1.6	-6.0	i	1.4
COCCN(CCOC)S(=O)(=O)c1ccc(C(=O)Nc2nnc(C3CC3)o2)cc1	-3.7	nt	-4.8	nt	nt	nt	21.1	14.4	nt	nt
COc1cc(C(c2c(C)[nH][nH]c2=O)c2c(C)[nH][nH]c2=O)ccc1OS(=O)(=O)c1ccccc1	-0.8	nt	-1.4	nt	nt	nt	16.0	-9.7	nt	33.6
Cc1ccn2c(c1)nc(=S)n2C(=O)c1ccccc1	1.5	2.4	9.5	20.9	4.9	-2.8	-15.2	-5.3	i	-4.5
OCCCNCc1ccc(Cl)cc1Cl	-1.8	0.4	-20.2	13.2	15.8	-0.3	-4.5	-2.9	i	-2.2
O=c1[nH]c2ccccc2nc1NCc1ccccc1	-7.5	-21.7	-2.3	1.7	4.6	1.6	nt	0.4	i	-8.2
O=C(COC(=O)C1CCN(c2ccc(C(F)(F)F)cn2)CC1)c1ccccc1Cl	-1.0	-2.5	-1.8	-12.4	-8.2	-6.0	3.4	5.6	i	1.7
COCCCNC(=O)CN1CCN(Cc2ccccc2Cl)C1=O	7.1	3.5	-3.3	6.2	18.2	-0.4	-14.4	-6.5	i	-0.8
COc1cccc(C2/C(=C(/O)c3ccc4c(c3)OCO4)C(=O)C(=O)N2CCN2CCOCC2)c1 (stereo not drawn)	nt	-1.4	-3.2	17.3	11.8	2.7	-1.1	6.7	i	nt
CCN(CC(=O)NCc1cccs1)C(=O)/C=C/c1cccc(Br)c1	4.6	-4.1	2.7	-15.3	-15.2	-0.3	16.3	0.0	i	2.4
CCOc1ccc(NC2C=CS(=O)(=O)C2)cc1 (stereo not drawn)	6.3	nt	7.3	nt	nt	nt	10.0	-5.7	nt	-13.0
N#Cc1ccccc1NC(=O)CNc1ccc(Cl)c(C(F)(F)F)c1	5.1	nt	-11.7	nt	nt	nt	-1.3	-6.2	nt	3.0
O=C(Oc1ccc(C(=S)N2CCOCC2)cc1)c1ccc([N+](=O)[O-])cc1	1.4	0.0	nt	9.1	12.4	-1.4	-1.0	-14.2	i	-3.1
CC(CCc1ccccc1)NC(=O)C1CCCN(c2nnc(-n3cccc3)s2)C1 (stereo not drawn)	-3.3	0.7	-3.0	-3.4	-3.1	5.3	4.0	8.3	i	8.8

Some of the compounds tested; count on the stated rates, not on these rows.
